BRCT inh green: inhibitors of human BRCA1 BRCT-phosphoprotein interaction (green fluorophore); P38398; BRCA1 BRCT-phosphopeptide binding, green fluorescence polarization; Potency, µM (doses to about 76.9 µM), without a hit: at the top dose activity change, negative = inhibition, hits mostly inhibitors; 0.05% of 75,000 active; AID 875;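 note: potency is the fitted concentration of half-maximal effect; plate controls were peptide without protein for full effect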
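Fluorescence polarization: His-tagged BRCT (~35 kDa BRCA1 C-terminus, 250 nM) bound to 100 nM fluorescein-labeled phosphorylated 10-aa BACH1 peptide, pH 7.3 phosphate buffer with DTT and Tween 20. Compounds incubated 12 min at room temperature; inhibition read as lowered polarization.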
HEK293 cAMP cs: raises cAMP in parental HEK293 cells, TSHR agonist counter-screen | parental HEK293 CNG cAMP sensor, membrane potential fluorescence | Potency, µM (series often up to 57.1 µM), for the others: at the top dose activation, most hits filed as activators | 2.5% of 73,000 active | AID 938; note: potency is the fitted concentration of half-maximal effect; % of control where 0% means no effect; nearly all actives have a fitted effect of over 55% in size
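Parental HEK 293 cells stably expressing a modified CNG channel (no TSHR) report cAMP rise as membrane depolarization. Membrane potential dye with 100 uM RO 20-1724 was loaded for 60 min at room temperature, then compound added for 30 min; fluorescence read at 590 nm.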
USP2a inhib: inhibitors of human ubiquitin-specific protease USP2a | 0.1% of 60,000 active | Potency, µM (titrated, usually from 38.3 µM), inactives show top-dose activity change, negative = inhibition, hits mostly inhibitors | USP2a enzymatic assay, qHTS inhibition | O75604 | AID 927;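 note: potency is the fitted concentration of half-maximal effect; nearly all actives have a fitted effect of over 60% in size; plate controls were DMSO for no effect and NEM full inhibition control for full effect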
Target sequence (O75604 whole entry, looked up): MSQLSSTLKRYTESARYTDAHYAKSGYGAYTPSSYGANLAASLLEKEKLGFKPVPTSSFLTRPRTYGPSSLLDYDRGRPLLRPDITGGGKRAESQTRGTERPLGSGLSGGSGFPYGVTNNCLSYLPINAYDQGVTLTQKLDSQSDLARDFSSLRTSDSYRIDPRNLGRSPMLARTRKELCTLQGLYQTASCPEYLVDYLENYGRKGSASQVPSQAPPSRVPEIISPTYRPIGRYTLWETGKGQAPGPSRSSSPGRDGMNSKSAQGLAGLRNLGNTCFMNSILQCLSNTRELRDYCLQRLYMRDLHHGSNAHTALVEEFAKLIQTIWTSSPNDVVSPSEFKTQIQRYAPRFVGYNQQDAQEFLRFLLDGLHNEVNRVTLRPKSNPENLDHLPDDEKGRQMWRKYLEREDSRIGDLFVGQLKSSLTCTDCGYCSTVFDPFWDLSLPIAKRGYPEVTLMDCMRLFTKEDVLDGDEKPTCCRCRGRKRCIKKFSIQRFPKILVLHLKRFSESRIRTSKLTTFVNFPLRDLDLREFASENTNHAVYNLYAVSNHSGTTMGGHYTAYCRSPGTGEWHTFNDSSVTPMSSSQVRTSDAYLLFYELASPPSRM
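USP2 core (20nM final) preincubated 30 min RT with compound, then Ub-PLA2 20nM and NBD C6-HPC 20uM final added; buffer 20mM Tris-HCl pH 8.0, 2mM CaCl2. Fluorescence Ex 460/Em 535 read at 0 and 2.5 h; normalized to NEM.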
BRCT PPI red: inhibitors of human BRCA1 BRCT-phosphoprotein interaction (red fluorophore). BRCT-phosphopeptide binding, red fluorescence polarization. Potency, µM (top dose mostly 76.9 µM), inactives show top-dose activity change, negative = inhibition, usual class: inhibitors. P38398. 0.03% of 75,000 active; note: % is set by controls: 0 for no effect and ±100 for the full control effect
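Fluorescence polarization: 100 nM His-tagged BRCA1 BRCT with 100 nM TAMRA-labelled phospho-BACH1 decapeptide, phosphate buffer pH 7.3 with 150 mM NaCl, DTT, 0.01% Tween 20; 12 min RT. Binding inhibition seen as FP decrease.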
Numbers without * were called inactive; ? = inconclusive; . = not tested or not shown; [ ] = remark or other dose. Calls come from the whole dose curve; as a rule, active = well fitted curve in the direction sought with a large enough effect; inconclusive = small, poorly fitted or top-dose-only effect, or another doubt; inactive = no such curve, though single readings can be large; an effect the other way counts as inactive or inconclusive.

SMILES | BRCT inh green | HEK293 cAMP cs | USP2a inhib | BRCT PPI red
CC1CCN(c2nc(-c3ccco3)c3c(c2C#N)CC(C)(C)OC3)CC1 | 3.2% | 8% | . | -0.6%
COc1ccc(N2CSC3=C(C#N)C(c4cc(OC)c(OC)cc4OC)CC(=O)N3C2)c(OC)c1 (centres undefined) | 6.9% | 11% | . | 0.3%
COc1ccc(C2C3=C(CC(C)(C)CC3=O)Nc3c2c(=O)[nH]c(=O)n3Cc2ccccc2)cc1 (centres undefined) | 0.6% | 10%[11.4 µM] | 37%[activator][7.66 µM] | 0.1%
c1ccc2ccccc2c1 | -2.1% | 18% | . | 0.1%
Nc1c(S(=O)(=O)c2ccccc2)c2nc3ccccc3nc2n1Cc1ccco1 | 8.5% | -10% | . | 1.0%
O=c1c2ccccc2oc2ccccc12 | -0.5%[3.08 µM] | . | -4% | -2.2%
N#Cc1cc2ccc(N3CCOCC3)cc2cc1C#N | 5.5% | ? | 2% | -1.0%
CC(C)c1cc(=O)oc2c3c4c(cc12)CCCN4CCC3 | -4.9% | 2% | 35%[activator] | -2.7%
Cc1ccc(-n2c(O)c(/C=N/n3cnnc3)c3ccccc3c2=O)cc1 | -0.5% | -5% | . | 0.2%
O=C(Oc1cc2oc(=O)c3c(c2cc1Cl)CCCC3)c1ccco1 | -3.4% | 5% | -10% | 0.8%
CC1=C(C(=O)OC(C)C)C(c2cccnc2)C2=C(CCCC2=O)N1 (centres undefined) | -1.1% | 0% | -26% | 0.6%
O=c1ccc2c(o1)/C(=C/C=C(Cl)Cl)CCC2 | -2.2% | 10%[11.4 µM] | 23%[7.66 µM] | -0.2%
CO[C@]12C(COC(N)=O)C3=C(C(=O)C(C)=C(N)C3=O)N1CC1NC12 (some centres undefined) | -2.6%[3.08 µM] | . | -8% | 0.3%
Cc1cc2cc(CCNC(=O)CC(C)C)c(=O)[nH]c2cc1C | 3.6% | -1% | . | -1.0%
COc1ccc(C(=O)/C=C/c2ccccc2)cc1 | 0.7%[3.08 µM] | . | -14% | -0.5%
COc1ccc(-c2cc(C(F)(F)F)n3nc(C(=O)N4CCCCC4)cc3n2)cc1 | -0.6% | ? | . | -2.2%
CC1=C(C(=O)OCC2CCCO2)C(c2ccncc2)C2=C(CCCC2=O)N1 (centres undefined) | 0.8% | ? | 1% | 1.9%
CCOC(=O)c1c(C)n(OCc2ccccc2)c2ccc3nonc3c12 | -2.6% | 10µM* | -3% | 0.3%
NCCN | 1.2% | 19% | . | 0.6%
O=C1Nc2ccc(S(=O)(=O)N3CCCC3C(=O)O)c3cccc1c23 (centres undefined) | -2.3% | ? | . | -2.4%
Cc1cc(NCc2ccco2)n2c(nc3ccccc32)c1C#N | -0.1% | -44%[inhibitor] | . | 1.2%
CC(=O)Nc1cc2ccc(OC(C)=O)cc2oc1=O | -2.4% | -11% | . | 0.7%
Cc1c(CCC(=O)O)c(=O)oc2cc(O)ccc12 | -1.0% | ? | 4% | 0.4%
CCC(=O)Oc1ccc2c(C)c(Cl)c(=O)oc2c1 | 1.1% | 15% | 30%[activator] | -1.7%
Cc1nc2ccccc2n2c(O)c(CC(=O)O)cc12 | -12% | -5% | 13% | -8.4%
SMILES | BRCT inh green | HEK293 cAMP cs | USP2a inhib | BRCT PPI red
CCOC(=O)c1sc2nccc(N(C)C)c2c1N=CN(C)C | -1.3% | 6% | 1% | 0.0%
O=[N+]([O-])c1ccc2nc[nH]c2c1 | -3.0% | 29% | . | 0.0%
CC(=O)C1=C(C)NC(SCC(=O)c2ccccc2)=C(C#N)C1c1ccco1 (centres undefined) | 4.4% | -3% | . | -0.1%
COC(=O)Nc1sc(C)nc1-c1ccccc1 | -0.4% | -1% | -1% | -0.2%
CN1CCCc2cc3c(C(F)(F)F)cc(=O)oc3nc21 | -19% | 13% | 37%[activator] | 1.2%
Cc1n[nH]c(C)c1N1C(=O)c2cccc3c(N4CCCCCC4)ccc(c23)C1=O | -29% | ? | -4% | -9.6%
COCCN1C=C(C(=O)OC)C(c2cc(Br)c(OC)c(OC)c2)C(C(=O)OC)=C1 | 2.1% | ? | 6%[7.66 µM] | -1.8%
COc1ccc(-c2cc(C(F)(F)F)n3nc(C(=O)NCc4ccco4)cc3n2)cc1 | -1.5% | ? | ? | 0.3%

Screening data: PubChem BioAssay, National Center for Advancing Translational Sciences (NCATS)

These rows are one share of the data, so the mix of outcomes need not match the whole.
